Beta2AR agonist: human beta-2 adrenergic receptor agonism by FAP; P07550; 0.43% of 340,000 active; AID 504454; response, % (test concentration not listed); Am2.2-beta2AR cells, FAP receptor internalization, flow cytometry; reference of the scale not given here;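 active means response above a set limit, near 3 SD of response in nonfluorescent compounds, cut at about 42% in these data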;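 further: stock transfer was 100 nL into about 11 µL; a reference agonist was the positive control; negative values mostly stem from fluorescent compounds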
Target sequence (P07550 whole entry, looked up): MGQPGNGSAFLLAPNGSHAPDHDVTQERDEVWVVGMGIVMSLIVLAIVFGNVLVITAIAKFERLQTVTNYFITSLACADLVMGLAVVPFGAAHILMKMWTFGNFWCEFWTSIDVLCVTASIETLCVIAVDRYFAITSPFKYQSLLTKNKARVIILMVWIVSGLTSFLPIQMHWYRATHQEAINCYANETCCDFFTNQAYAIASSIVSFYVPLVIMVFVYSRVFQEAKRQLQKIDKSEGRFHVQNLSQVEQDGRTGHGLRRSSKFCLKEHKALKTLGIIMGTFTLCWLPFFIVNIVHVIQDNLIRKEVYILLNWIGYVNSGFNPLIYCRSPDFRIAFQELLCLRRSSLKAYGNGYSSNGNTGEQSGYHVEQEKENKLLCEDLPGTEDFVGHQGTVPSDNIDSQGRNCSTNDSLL
Ecoli rRNA inh: inhibitors of bacterial rRNA selective over humanized ribosomes | E. coli WT GFP vs humanized-ribosome RFP mutants, fluorescence, 24 h; stronger effect = lower value; DMSO median 0, no signal -100 | GFP signal change (wild-type ribosome), % (test concentration not listed) | 1.6% of 350,000 active | AID 720706;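 active means significant combined selectivity score with lowered wild-type GFP, culture density cut under 30%, mutant RFP and density less affected; inactive means any of these conditions unmet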; further: one replicate is shown; some compounds called inactive have numbers as strong as hits
T cruzi repl: blocks replication of Trypanosoma cruzi; T. cruzi beta-gal in NIH3T3, luminescence, 90 h; inhibition, % (no concentration beside the values); 1.4% of 300,000 active; AID 1885;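 active means mean inhibition across valid replicates above about 55%, limit read from the data; inconclusive means mean below that limit but half or more replicates reach it; inactive means mean below it, under half of replicates reach it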;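 further: signal also drops with host cell toxicity which is not excluded here; 0% = plate median of DMSO wells and 100% = zero luminescence signal; higher percent means less beta-gal luminescence so fewer parasites; stock transfer was 50 nL into about 50 µL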
A1 inh: inhibitors of the anti-apoptotic protein A1, read as caspase activation. MEF A1-2A-BIM cells, Caspase-Glo 3/7 luminescence, 3 h; percent of clofoctol response, vehicle zero. caspase activation, % (test concentration not listed). 0.066% of 330,000 active. AID 2462;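 active means over half of replicate activation scores above 10%, or exactly half above 10 with the replicate mean above 10; inconclusive means replicate mean below 10 yet half the replicates above 10; inactive means over half of replicates below 10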;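 further: wells of about 30 µL received 50 nL stock; many hits fall short of the cut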
Beta cell apopt: beta cell apoptosis inhibition. INS-1E cytokine-induced death, ATP luminescence, 48 h; percent of positive-control rescue, neutral wells zero. 0.8% of 300,000 active. protection from apoptosis, % (test concentration not listed). AID 435005;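 active means all replicates at 75% or more, or half of them and the mean; inconclusive means half reach 75% but not the mean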;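 further: 0% = cytokine-treated negative control wells and 100% = positive control rescue; higher means more ATP so stronger rescue from cytokine killing; wells of about 40 µL received 100 nL stock; the first replicate is given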
Calb FLC: affects C. albicans growth with fluconazole. C. albicans CaCi-2 (fluconazole-resistant clinical isolate) + fluconazole, Alamar Blue growth, 48 h. growth inhibition, % (no concentration beside the values). 0.57% of 300,000 active. AID 1979;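 active means most replicates above 75%; inconclusive means exactly half above 75%; inactive means most below 75%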;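 further: all wells also contain fluconazole at 8 µg/ml as a sub-toxic cotreatment; 0% = median of DMSO wells and 100% = median of geldanamycin control wells; wells of about 8 µL received 7.5 nL stock; the first replicate is given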
LANA-H2B inh: blocks KSHV LANA binding to histone H2A/H2B | Q9QR71 | cell-free LANA-H2A/H2B peptide, fluorescence polarization | inhibition, % (test concentration not listed) | 0.6% of 320,000 active; in the data active means inhibition mostly above about 10%, no sharp cut-off; inactive means mostly below about 6.7%;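 further: stock transfer was 7.5 nL into about 10 µL; 0% = median of vehicle wells and 100% = median of positive control wells; one replicate is shown; the record names a cut of 25% in any replicate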
ALR H2O2 inh: blocks human ALR sulfhydryl oxidase activity; P55789; purified ALR, DTT oxidation, H2O2 HRP-luminol luminescence; inhibition, % (test concentration not listed); 3.8% of 290,000 active;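 active means mean and each replicate at 75% or more; inconclusive means only one of the two met; inactive means neither met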;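 further: stock transfer was 7.5 nL into about 7.5 µL; 0% = neutral wells and 100% = wells with inactivated enzyme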
Target sequence (P55789 whole entry, looked up): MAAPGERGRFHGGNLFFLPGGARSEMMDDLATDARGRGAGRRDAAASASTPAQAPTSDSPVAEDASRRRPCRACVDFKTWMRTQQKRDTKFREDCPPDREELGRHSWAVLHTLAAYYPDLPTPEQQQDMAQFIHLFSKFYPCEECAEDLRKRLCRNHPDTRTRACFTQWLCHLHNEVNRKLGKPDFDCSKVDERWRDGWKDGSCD
Ecoli rRNA inh OD600: recorded beside Ecoli rRNA inh, whose call it bears; OD600 change, %; measured here: OD600 growth;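 optical density of the mix in the first replicate; 0 = DMSO median and -100 = no signal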
Ecoli rRNA inh RFP: recorded beside Ecoli rRNA inh, whose call it bears; RFP signal change, %; measured here: RFP humanized mutant strains;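 first replicate; 0 = DMSO median and -100 = no signal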
Numbers without * were called inactive; ? = inconclusive; / = no result given. Not all compounds are listed; count on the stated rates, not on these rows.

Start of the listing, in advance (5 entries):
SMILES	Beta2AR agonist	Ecoli rRNA inh	Ecoli rRNA inh OD600	Ecoli rRNA inh RFP	T cruzi repl	A1 inh	Beta cell apopt	Calb FLC	LANA-H2B inh	ALR H2O2 inh
CCCCCCCSc1nnc(N)s1	6	-9	-3	0.9	-3	-0.4	/	-4	-0.1	0
O=C(Nc1nccs1)c1ccc(-c2ccc(Cl)cc2Cl)o1	1	13	14	-1.0	4	-1.5	5	-8	2.3	2
Cc1ccc2c(c1)N(CCC(=O)NCC1COc3ccccc3O1)C(=O)CO2 (stereo unspecified)	-7	/	/	/	-3	0.3	-4	19	-0.3	-11
CC(C)c1ccc(-n2ccnc2SCC(=O)O)cc1	2	0	-5	2.8	-13	-1.1	-7	-3	-4.7	74
CCCN1CCC2(CC1)NC(C(=O)O)Cc1c2[nH]c2ccccc12 (stereo unspecified)	-2	/	/	/	-8	0.2	-11	7	3.6	5

This part in full, repeating the preview:
SMILES	Beta2AR agonist	Ecoli rRNA inh	Ecoli rRNA inh OD600	Ecoli rRNA inh RFP	T cruzi repl	A1 inh	Beta cell apopt	Calb FLC	LANA-H2B inh	ALR H2O2 inh
CCCCCCCSc1nnc(N)s1	6	-9	-3	0.9	-3	-0.4	/	-4	-0.1	0
O=C(Nc1nccs1)c1ccc(-c2ccc(Cl)cc2Cl)o1	1	13	14	-1.0	4	-1.5	5	-8	2.3	2
Cc1ccc2c(c1)N(CCC(=O)NCC1COc3ccccc3O1)C(=O)CO2 (stereo unspecified)	-7	/	/	/	-3	0.3	-4	19	-0.3	-11
CC(C)c1ccc(-n2ccnc2SCC(=O)O)cc1	2	0	-5	2.8	-13	-1.1	-7	-3	-4.7	74
CCCN1CCC2(CC1)NC(C(=O)O)Cc1c2[nH]c2ccccc12 (stereo unspecified)	-2	/	/	/	-8	0.2	-11	7	3.6	5
O=C(COc1cccc(C(F)(F)F)c1)N1CCN(c2ccccc2O)CC1	2	-24	-27	-1.8	5	-0.3	-9	0	-6.1	98*
O=C(CN1CCCCC1)Nc1nc(-c2ccc(Cl)cc2)cs1	1	17	16	2.6	19	0.5	2	4	-0.3	-11
CCOC(=O)[C@H]1[C@H]2COc3ccc(Cl)cc3[C@@H]2N2C(=O)CN(Cc3ccc(C)cc3)C(=O)[C@@]12C	-2	-4	-15	2.2	/	-0.7	-2	/	2.9	7
COc1ccc(S(=O)(=O)NCC2CCC(C(=O)NCc3cccnc3)CC2)cc1 (stereo unspecified)	2	15	19	4.9	-3	-0.3	2	6	0.8	-5
Cc1ccc(-c2nc3ccccc3s2)cc1NC(=O)c1ccc2c(c1)OCO2	-8	/	/	/	-2	0.0	-4	-13	-3.7	/
CC1CCCC(C)N1C(=O)CN1C(=O)C(C)(C)Oc2ccc(C(=O)NC3CCCCC3)cc21 (stereo unspecified)	-3	/	/	/	-5	1.8	6	?	0.4	-1
CCN(C(=O)c1ccc(Br)o1)C1CCS(=O)(=O)C1 (stereo unspecified)	-5	5	4	1.9	-7	-0.4	-3	6	0.8	-6
OC(COC(c1ccccc1)c1ccccc1)CN1CCN(c2ccccn2)CC1 (stereo unspecified)	-7	-24	-34	-4.3	8	-1.2	-10	-22	-5.9	0
Cc1ccc(-c2nc(N)n(S(C)(=O)=O)n2)cc1	-6	/	/	/	1	0.0	-5	3	2.5	4
Cc1cccc(NC(=O)CSc2nnc(C3CC3)n2CC2CCCO2)c1 (stereo unspecified)	-8	1	1	4.8	6	-0.4	0	-6	2.5	/
COc1ccc2oc(=O)c(C(=O)Oc3ccc(NC(C)=O)cc3)cc2c1	2	7	3	-4.8	-2	1.1	-8	8	5.5	-5
C[C@@H]1CCCCCCCCCCC1=O	10	15	21	1.8	1	0.2	-4	3	-3.7	-9
N=c1oc2cc(O)ccc2cc1C(=O)Nc1ccc(Cl)cc1	3	-35	-41	-0.5	6	-1.7	/	0	-3.6	-4
CCOC(=O)C1CCN(C(=O)c2ccc3c(c2)OCO3)CC1	13	/	/	/	-8	0.5	1	39	-1.7	-3
O=S(=O)(N/N=C/c1cn(Cc2ccccc2)c2ccccc12)c1ccccc1	-3	/	/	/	19	-0.3	0	28	3.4	-11
CCCc1c(O)nc(SC2CC(=O)N(c3ccc(OC)cc3)C2=O)[nH]c1=O (stereo unspecified)	2	10	5	2.1	-1	-0.2	-4	-5	6.1	-2
CN(CC(=O)NCc1ccccc1)S(=O)(=O)c1ccc2c(c1)CCC(=O)N2	1	0	-1	-5.7	-3	0.0	-4	26	-17	-6
CNC(=O)CSc1nnc(SCCC(=O)O)s1	5	/	/	/	-14	0.9	-7	-2	3.9	-5
O=C(Nc1ccc(Cl)c([N+](=O)[O-])c1)c1ccc2c(c1)OCCO2	6	0	7	-2.4	13	-1.1	5	-26	0.9	-14
Cc1cccn2c(=O)c(C=C(C#N)C#N)c(N3CCN(C)CC3)nc12	3	3	6	3.0	21	0.7	-7	-2	0.5	-6
COc1ccc(-c2csc(/N=C/N(C)C)n2)cc1OC	-26	-13	-7	-9.1	-5	-0.2	8	5	-0.2	47
O=C(NCCN1CCCC1)C1CCC(=O)N(CCCN2CCOCC2)C1 (stereo unspecified)	0	16	7	1.4	-17	0.1	-4	-2	-5.1	-2
Cc1ccc(OC/C(O)=C(\C#N)c2nc3ccccc3s2)cc1	2	-1	-2	3.9	-35	-3.0	11	53	0.8	0
Cc1cc(C)c(C(=O)Nc2ccc(C)c(C)c2)c(CC(C)(C)C(=O)O)c1	0	0	13	5.4	/	-0.1	8	21	3.6	-1
CC(C)CCNC(=O)c1cn(C)c2ccc(S(=O)(=O)N3CCCC3)cc2c1=O	-1	3	8	-0.8	7	-0.3	3	5	2.2	1
Nc1nc(SCC(=O)NCCCN2CCOCC2)nc2sc3c(c12)CCC3	-20	5	11	-4.8	-4	0.1	-4	-12	-1.3	-4
O=C(COc1ccccc1C(=O)O)NC1CCCc2ccccc21 (stereo unspecified)	0	4	5	5.0	-3	0.1	-8	-3	-5.1	-4
COc1ccc(CCN(C)CCC(=O)Nc2cc(C)ccc2C)cc1OC	10	/	/	/	30	0.2	0	-7	1.8	-9
CC(C)Oc1cccc(C(=O)C2CCCN(C(=O)c3csnn3)C2)c1 (stereo unspecified)	-1	4	1	1.7	-9	-0.2	4	6	-7.7	-15
CCCN1C2CCCC1CC(NC(=S)Nc1cc(C)cc(C)c1)C2 (stereo unspecified)	7	26	3	-4.2	-11	1.6	-5	-6	-3.8	-1
Cc1ccc(-c2cc3c(n2-c2ccc(C(=O)O)cc2)CCCC3=O)cc1	-4	/	/	/	-21	0.3	-3	-1	1.8	-6
COc1ccc(/C=N/NC(=O)C2c3ccccc3Oc3ccccc32)c(OC)c1	5	/	/	/	-14	1.8	/	1	0.7	41
COc1ccc(N2C(=O)C3CCCN3C2c2ccc(C)cc2)cc1Cl (stereo unspecified)	-7	/	/	/	2	0.1	4	8	0.9	6
COCCSc1ccccc1C(=O)Nc1ccc2c(c1)OCO2	8	2	-10	2.8	2	1.0	-6	-8	1.2	/
Cc1c(C)c2ccc(OCC(=O)N3CCN(C(=O)C4COc5ccccc5O4)CC3)cc2oc1=O (stereo unspecified)	-16	0	3	1.0	-9	0.5	3	11	1.9	-1

Retrieved by structure from the list above (five):
SMILES	Beta2AR agonist	Ecoli rRNA inh	Ecoli rRNA inh OD600	Ecoli rRNA inh RFP	T cruzi repl	A1 inh	Beta cell apopt	Calb FLC	LANA-H2B inh	ALR H2O2 inh
O=C(NCCN1CCCC1)C1CCC(=O)N(CCCN2CCOCC2)C1 (stereo unspecified)	0	16	7	1.4	-17	0.1	-4	-2	-5.1	-2
CN(CC(=O)NCc1ccccc1)S(=O)(=O)c1ccc2c(c1)CCC(=O)N2	1	0	-1	-5.7	-3	0.0	-4	26	-17	-6
CCCN1C2CCCC1CC(NC(=S)Nc1cc(C)cc(C)c1)C2 (stereo unspecified)	7	26	3	-4.2	-11	1.6	-5	-6	-3.8	-1
Cc1c(C)c2ccc(OCC(=O)N3CCN(C(=O)C4COc5ccccc5O4)CC3)cc2oc1=O (stereo unspecified)	-16	0	3	1.0	-9	0.5	3	11	1.9	-1
COc1ccc(-c2csc(/N=C/N(C)C)n2)cc1OC	-26	-13	-7	-9.1	-5	-0.2	8	5	-0.2	47

(further entries)
SMILES	Beta2AR agonist	Ecoli rRNA inh	Ecoli rRNA inh OD600	Ecoli rRNA inh RFP	T cruzi repl	A1 inh	Beta cell apopt	Calb FLC	LANA-H2B inh	ALR H2O2 inh
CC1CCN(CCc2nc3cc(NC(=O)COc4ccccc4)ccc3n2C)CC1	-18	8	3	0.4	3	-0.4	-4	6	3.5	-6
CC(=O)c1cccc(NC(=S)NC(=O)c2ccccc2Cl)c1	-3	/	/	/	2	0.8	/	0	7.0	-1
COc1cccc(CNC(=O)c2nnn(CC(=O)Nc3ccc4c(c3)OCO4)c2N)c1	-1	7	6	1.3	2	1.6	2	-3	-3.9	/
Cc1cccc(C)c1NC(=S)N1CCC(c2ccccc2)C1 (stereo unspecified)	13	-11	-10	-8.7	-10	0.0	-3	-6	-7.8	3
CC(=O)c1ccc(N2CCN(C(=O)CCS(=O)(=O)c3ccc(C)cc3)CC2)cc1	3	/	/	/	/	-0.2	1	/	-0.1	-9
Cc1ccc(-n2c(O)c(/C=N/c3ncn[nH]3)c3ccccc3c2=O)cc1	-3	0	-3	-2.1	-13	0.7	0	12	-2.4	/
COc1cccc(CNC(=O)c2c[nH]n3c(=O)c(Cl)c(C)nc23)c1	1	/	/	/	-15	-0.4	-5	-2	0.7	-3
Cc1cccc(N2CCN(S(=O)(=O)c3ccc(S(=O)(=O)N4CCCC4)cc3)CC2)c1C	-2	/	/	/	12	0.0	-4	-6	1.3	-11
CCOC(=O)Cc1csc(NC(=O)c2cc3c(s2)CCCC3)n1	/	/	/	/	-12	-3.2	4	-13	9.3	14
c1cncc(-c2nc(-c3ccc4c(c3)OCCO4)cs2)c1	0	-15	-32	-3.8	-14	-6.8	-13	31	-2.8	-5
CC1(C)C2CCC13CS(=O)(=O)NC3C2 (stereo unspecified)	9	/	/	/	/	0.3	-2	5	-1.0	-4
COc1c(/C=N/NC(=O)c2ccncc2)c(CCN(C)C(C)=O)cc2c1OCO2	-2	11	12	1.8	9	1.8	6	-14	-3.2	-10
CCOC(=O)CSc1nnc(-c2ccc(S(=O)(=O)N3CCC(C)CC3)cc2)o1	9	/	/	/	1	0.4	-6	17	2.7	-1

Assay outcomes from PubChem.
